PINK1 modulator = modulators of PINK1 expression; PINK1 immunofluorescence, high-content cytometry, 24 h; Potency, µM (series often up to 76.6 µM), for inactives: at the highest dose activation (PINK1 increase), usual class: activators; 410,000 compounds, 0.2% hits; active = well fitted activation curve with a large enough effect; inconclusive = small, poorly fitted or top-dose-only effect; inactive = flat fitted curve, though single readings scatter; cell line not stated here;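 note: potency is the fitted concentration of half-maximal effect; % of control where 0% means no effect; nearly all actives have a fitted effect of over 65% in size; a mitochondrial uncoupler was the plate control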
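Compound titrations (5 concentrations, 24 h) on a stable cell line; DMSO and CCCP controls. Endpoint: fixed-cell PINK1 immunofluorescence with mitochondrial, cell and nuclear markers, scanned by microplate cytometer.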
D2 ag = activates the human D2 dopamine receptor. activation, % (concentration not given with the values). AID 624465. 360,000 compounds, 0.084% hits. P14416. DiscoveRx PathHunter D2 beta-arrestin, luminescence, 90 min; 100% = 57 uM dopamine signal; in the data active = activation above about 40%; inconclusive = about 15% to 40%; inactive = below about 15%; note: the text of the record calls up to 30% inactive
Target sequence (P14416 whole entry, looked up): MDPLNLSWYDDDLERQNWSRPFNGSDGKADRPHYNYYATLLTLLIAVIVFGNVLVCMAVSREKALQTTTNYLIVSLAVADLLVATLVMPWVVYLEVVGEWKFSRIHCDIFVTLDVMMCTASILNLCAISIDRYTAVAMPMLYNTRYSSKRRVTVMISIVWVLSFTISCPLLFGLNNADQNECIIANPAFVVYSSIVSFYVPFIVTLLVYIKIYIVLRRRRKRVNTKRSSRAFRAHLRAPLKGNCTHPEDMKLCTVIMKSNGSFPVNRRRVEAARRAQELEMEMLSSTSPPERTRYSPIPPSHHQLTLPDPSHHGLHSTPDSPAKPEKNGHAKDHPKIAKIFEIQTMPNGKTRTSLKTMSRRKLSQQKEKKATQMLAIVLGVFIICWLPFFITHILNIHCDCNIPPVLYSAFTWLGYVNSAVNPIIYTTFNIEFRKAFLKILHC
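Agonist mode: compounds alone added to overnight-plated D2 PathHunter cells for 90 min at 37 C, with 57 uM final dopamine (EC100) defining full response. Beta-arrestin recruitment detected by chemiluminescent reagent, read after 1 h at ambient temperature.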
CtBP-E1A blk = inhibitors of CtBP/E1A interaction. AlphaScreen GST-E1A/His-CtBP binding, 1536-well; stronger effect = lower value; control for the full effect not named in the record. activity change, % (test concentration not listed). 340,000 compounds, 0.49% hits. AID 651724; in the data active means activity change below about -65%; inconclusive means about -30% to -65%; inactive means above about -30%; note: % is set by controls: 0 for no effect and ±100 for the full control effect
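Steps: dispense buffer (Tris pH 8.0, NaCl 300 mM, TCEP 1 mM, BSA, Tween 20); add 5X protein mix (GST-E1A, His-CtBP, 125 nM each); pin 23 nL compound; 2 h at 37 °C, dark; add 5X beads (50 ug/mL); 1 h; read.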
Six1-Eya2 blk = inhibitors of human Six1/Eya2 interaction; AlphaScreen GST-Six1/His-Eya2 binding, biochemical; stronger effect = lower value; control for the full effect not named in the record; activity change, % (test concentration not listed); 360,000 compounds, 0.56% hits; in the data active = activity change below about -65%; inconclusive = about -30% to -65%; inactive = above about -30%; note: % is set by controls: 0 for no effect and ±100 for the full control effect
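AlphaScreen luminescence read after one hour at 37 °C in darkness. Pin-transferred compounds met GST-Six1 and His-Eya2 protein (5X stock 250 nM/500 nM) plus glutathione donor and Ni-chelate acceptor beads (5X, 50 ug/mL).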
Sfp PPTase inh = Sfp phosphopantetheinyl transferase inhibition; Biochemical Sfp PPTase activity, qHTS; Potency, µM, inactives show max response, negative = inhibition, usual class: inhibitors; AID 1490; 310,000 compounds, 3.5% hits; active = well fitted inhibition curve with a large enough effect; inconclusive = small, poorly fitted or top-dose-only effect, or another doubt; inactive = no such curve, though single readings can be large or run the other way;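 note: the enzyme is Sfp with the accession as filed and its product quenches rhodamine fluorescence; potency is the fitted concentration of half-maximal effect; 0% = enzyme reaction without inhibitor and -100% = no enzyme wells; top concentration of the series not given in the record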
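Sfp 15 nM + cpd, 15 min RT; start w/ rhodamine-CoA 5 uM, BHQ-2-YbbR 12.5 uM (final); 50 mM Hepes pH 7.6, 10 mM MgCl2, 0.01% NP-40, 0.01% BSA; read 525/598 nm at 0 and 30 min.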
D2 potentiator = human D2 receptor positive allosteric modulation; potentiation, % (concentration not given with the values); DiscoveRx D2 beta-arrestin cells, luminescence, 90 min; 100% = 57 uM dopamine signal; 360,000 compounds, 0.23% hits; P14416; active = potentiation of 50% or more; inconclusive = 30% to 50%; inactive = 30% or less;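 note: tested on top of an EC20 dose of dopamine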
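D2 cells co-treated with compound plus 50 nM dopamine (EC20) for 90 min at 37 deg C to detect potentiation. Beta-arrestin recruitment was read as enzyme-fragment luminescence after 1 h at ambient temperature. Full response was set by 57 uM dopamine.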
TRPV1 potentiator = human TRPV1 potentiation | Q8NER1 | TRPV1-expressing cells, Fluo-8 calcium influx, capsaicin EC20 potentiation; host cell line not named in the record; control for the full effect not named in the record | potentiation, % at 8.33 µM | 320,000 compounds, 0.02% hits; active means potentiation above 80%; inconclusive means 30% to 80%; inactive means below 30%; note: 0% is about no effect
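TRPV1-expressing cells were cultured overnight at 35.5C and loaded with Fluo-8 calcium dye for 40 to 90 min at room temperature. After a 10 s baseline, compound was added and calcium influx was read kinetically for 3 min (ex 480/em 520 nm).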
* = called active by the depositor; ? = inconclusive; . = no result given; & = joins results of further samples; [ ] = another dose, or the depositor's remark.

SMILES	PINK1 modulator	D2 ag	CtBP-E1A blk	Six1-Eya2 blk	Sfp PPTase inh	D2 potentiator	TRPV1 potentiator
COc1cccc(N=C2SC(C(=O)Nc3ccccc3F)CC(=O)N2C)c1 (stereo not given)	.	1.0	-1	0	3%	-10	-28
CN(CCNC(=O)C1CC(=O)N(C2CCCC2)C1)Cc1ccccc1 (stereo not given)	0.2%	-4.3	0	13	.	-5	.
C=CCOc1ccc(/C=C/C(=O)OCC(=O)NCCC2=CCCCC2)cc1	13%	-2.0	3	1	6%	11	3
Cc1ccsc1/C=N/NC(=O)CNC(=O)c1ccc(S(=O)(=O)N(C)C)cc1	-1.1%	-4.5	.	10	13%	-17	7
CCCNC(=O)c1ccc(C)c(NC(=O)C2=C(C)OCCS2)c1	8.2%	1.6	6	8	1%	6	18
O=C(NCc1cccnc1)c1cc(C2CCCCN2C(=O)CCCc2ccccc2)on1 (stereo not given)	2.4%	-4.4	4	5	.	-5	.
O=C(OCc1ccccc1)C1CCCN1C(=O)c1cccs1 (stereo not given)	-0.4%	-3.2	10	8	0%	1	7
CC1CCCC(NC(=O)c2ccc3c(c2)OCCO3)C1C (stereo not given)	3.8%	1.4	.	4	.	-6	-18
CCN(CC)CCOC(=O)c1c(C)oc2ccc(O)cc12	0.3%	0.6	-2	4	6%	-10	-14
CCCCCCCCN1C(=O)[C@H](CC(=O)N2CCN(C(=O)OCC)CC2)C[C@@]2(C(=O)OCC)CCCC=C12	-0.5%	.	-1	-10	.	.	.
CCNc1nc(NCC)n2c(SCC(=O)Nc3ccc(C)c(C)c3)nnc2n1	2.6%	-4.4	-4	-4	.	-2	12
COc1ccccc1NC(=O)c1cccc(S(=O)(=O)N2CCN(c3ccccc3)CC2)c1	-0.8%	-4.2	-14	-2	.	-2	4
O=C(NCCc1ccccc1)C1CCC(Cn2c(=O)c3ccccc3n(Cc3cccc(Cl)c3)c2=O)CC1 (stereo not given)	6.3%	0.8	1	6	.	-2	.
Cc1cccc2cc(C(c3nnnn3CC3CCCO3)N3CCc4ccccc4C3)c(=O)[nH]c12 (stereo not given)	16%[38.3 µM]	-3.4	2	10	20µM*	9	1
Cc1nnc(Nc2ccc(S(N)(=O)=O)cc2)c2ccccc12	0.2%	3.0	-7	-3	15%	-2	1
COc1ccccc1/C=N/NC(=O)C(C)Cn1cnc2ccccc21 (stereo not given)	0.5%	-3.9	3	3	6%	-4	11
CCOC(=O)C1=C(COC(=O)Cc2ccccc2F)NC(=O)NC1C (stereo not given)	6.1%	-3.5	3	0	.	-17	-34
O=C(O)COCC(=O)NCc1nc(-c2ccc(C(F)(F)F)cc2)no1	-1.1%	-5.5	2	5	14%	-1	5
C=CCn1c(=O)n(C)c2c(=O)n(C)c(=O)n(C)c21	1.3%	-1.1	-13	-9	.	-3	.
O=C(c1ccccc1F)N1CCc2ccccc21	2.5%	-1.3	9	7	9%	16	-11
Cc1ccc(NC(=O)COc2ccc(-n3cnnn3)cc2)cc1C	-0.3%	1.7	8	7	2%	-10	16
CC1=C(C(=O)OCc2ccccc2)C(c2ccc(C)o2)C2=C(CCCC2=O)N1 (stereo not given)	4.6%	-1.9	-5	-2	-3%	-16	-1
O=C(Nc1ccnn1C1CCNCC1)c1ccc2c(c1)OCO2	2.2%	-4.5	-9	1	.	0	.
Cn1cccc1-c1nc2ccccc2n1C	1.3%	-2.1	-6	-12	1%	-23	5
Cc1cccc(C)c1NC(=O)CN(C)CC(=O)Nc1ccc(F)c(Cl)c1	-0.4%	-0.5	-14	-13	7%	-4	5

Whole records as entered above.
Profile of `CCCCCCCCN1C(=O)[C@H](CC(=O)N2CCN(C(=O)OCC)CC2)C[C@@]2(C(=O)OCC)CCCC=C12` : PINK1 modulator = -0.5%; D2 ag = .; CtBP-E1A blk = -1; Six1-Eya2 blk = -10; Sfp PPTase inh = .; D2 potentiator = .; TRPV1 potentiator = .
Profile of `O=C(OCc1ccccc1)C1CCCN1C(=O)c1cccs1` (stereo not given) : PINK1 modulator = -0.4%; D2 ag = -3.2; CtBP-E1A blk = 10; Six1-Eya2 blk = 8; Sfp PPTase inh = 0%; D2 potentiator = 1; TRPV1 potentiator = 7

The listing picks up, repeating the two entries before the break.
SMILES	PINK1 modulator	D2 ag	CtBP-E1A blk	Six1-Eya2 blk	Sfp PPTase inh	D2 potentiator	TRPV1 potentiator
Cn1cccc1-c1nc2ccccc2n1C	1.3%	-2.1	-6	-12	1%	-23	5
Cc1cccc(C)c1NC(=O)CN(C)CC(=O)Nc1ccc(F)c(Cl)c1	-0.4%	-0.5	-14	-13	7%	-4	5
CC(Oc1ccc(-c2ccccc2)cc1)C(=O)N1CCOCC1 (stereo not given)	-1.7%	1.1	-1	8	12%	-2	-6
Cc1noc(NS(=O)(=O)c2ccc(NS(=O)(=O)c3ccc(Cl)cc3)cc2)c1C	0.3%	-3.2	0	0	.	-8	.
CCc1ccc(NC(=O)CN(c2cccc(C)c2)S(C)(=O)=O)cc1	0.4%[38.3 µM]	-2.3	9	4	18%	-11	8
CCN(C(=O)CSc1nc(-c2ccccc2)c(-c2ccccc2)[nH]1)C1CCS(=O)(=O)C1 (stereo not given)	-1.7%	-2.7	-7	0	-1%	-8	-14
Brc1ccc(CSc2nnc(-c3cnccn3)n2Cc2ccco2)cc1	4.0%	-4.2	0	-16	-14%	-18	13
CCC(=O)Nc1sccc1C(=O)OC	-2.4%[38.3 µM]	-3.0	13	4	6%	-10	6
Nc1nc(NCC2CCCO2)nc(NCC2CCCO2)c1[N+](=O)[O-] (stereo not given)	4.9%	-0.2	-1	1	7%	-6	-5
CC1CC2C(C(O)CC3(C)C2CCC3(O)C(=O)CO)C2(C)C=CC(=O)C=C12 (stereo not given)	4.6%	5.8	2	4	.	4	.
N#Cc1c(C(F)(F)F)cc(-c2ccccc2)nc1SCC(=O)N1CCOCC1	.	-0.4	-10	0	-12%	-13	-13
COc1ccc(-n2c(SCC(=O)NNC(=O)c3ccc(C)cc3)nnc2-c2ccncc2)cc1	-1.2%	-2.7	-7	-2	16%	-19	-5
O=C(Nc1ccc(N2CCOCC2)nc1)c1ccc(C(F)(F)F)cc1	2.6%	2.0	2	0	20%	-1	-22
CCOC(=O)N1CCN(C(=O)CC(C)S(=O)(=O)c2cc3c(cc2C)NC(=O)CO3)CC1 (stereo not given)	1.1%	-2.4	2	0	6%	1	-5
COc1ccc(/C=C/C(=O)NCCc2ccc(S(N)(=O)=O)cc2)cc1	3.2%	-0.2	1	-7	10%	10	-6
COC(=O)c1ccc(C23CC4(C2)[C@H](CN(C)[C@@H]4c2ccccc2)C3c2ccc(C(F)(F)F)cc2)cc1 (stereo not given in full)	?	-2.5	-7	-16	5%&-7%	-12	?
O=C(Oc1ccc(-c2nnco2)cc1)c1ccco1	-1.2%	0.9	1	?	.	-4	9
Cc1cc(C)cc(OCCn2ccnc2)c1	1.9%	-2.3	2	5	21%	-5	2
Cc1ccc(OCC(=O)Nc2ccc(N(C)C)cc2)cc1	-0.2%	5.2	-6	-20	10%	-4	2
CCOC(=O)Cn1cnc2c(nnn2-c2ccccc2)c1=O	3.0%	-6.7	1	0	12%	-2	-27
COC(=O)c1[nH]c2cccc(C)c2c1NC(=O)CN1CCN(C(=O)c2ccco2)CC1	-2.8%	10	7	10	-13%	4	13
COc1cc(OC)cc(-c2nnc(NC(=O)CCS(=O)(=O)c3ccc(C)cc3)o2)c1	3.1%	-0.7	?	-15	.	3	7
O=C(C1CC(=O)N(c2ccc(Cl)cc2)C1)N1CCCCCC1 (stereo not given)	-2.9%	-2.9	19	6	-2%	-2	11
CCCc1c(C(=O)N/N=C(/C)c2ccncc2)nnn1-c1nonc1N	2.7%	-2.2	6	3	7%	-5	1
CCN(CC)Cc1c(C(=O)N/N=C/c2ccccn2)nnn1-c1nonc1N	1.4%	1.8	?	?	-34%	-1	-14
Cn1c(SCC(=O)Nc2ccccc2C(F)(F)F)nc2c(c1=O)SCC2	0.2%	1.1	6	-4	7%	-6	0
CCN(CC)CCNC(=O)c1ccc(NC(=O)Cc2ccc(OC)c(S(=O)(=O)N3CCOCC3)c2)cc1	-0.1%	-1.5	-8	0	.	-2	.

Printed as active in Sfp PPTase inh, among the entries above:
SMILES | PINK1 modulator | D2 ag | CtBP-E1A blk | Six1-Eya2 blk | Sfp PPTase inh | D2 potentiator
Cc1cccc2cc(C(c3nnnn3CC3CCCO3)N3CCc4ccccc4C3)c(=O)[nH]c12 (stereo not given) | 16%[38.3 µM] | -3.4 | 2 | 10 | 20µM* | 9

Two of the compounds above, with two lines to a compound.
Every second line gives: PINK1 modulator	D2 ag	CtBP-E1A blk	Six1-Eya2 blk	Sfp PPTase inh	D2 potentiator	TRPV1 potentiator
- N#Cc1c(C(F)(F)F)cc(-c2ccccc2)nc1SCC(=O)N1CCOCC1
    .	-0.4	-10	0	-12%	-13	-13
- CCOC(=O)N1CCN(C(=O)CC(C)S(=O)(=O)c2cc3c(cc2C)NC(=O)CO3)CC1 (stereo not given)
    1.1%	-2.4	2	0	6%	1	-5

Further entries:
SMILES	PINK1 modulator	D2 ag	CtBP-E1A blk	Six1-Eya2 blk	Sfp PPTase inh	D2 potentiator	TRPV1 potentiator
COc1ccc(CNC(=O)C(=O)NCC2OCCN2S(=O)(=O)c2cccs2)cc1 (stereo not given)	0.5%	0.1	1	2	25%	-3	0
NC(=S)NCc1cccnc1	2.3%	-3.6	4	9	-1%	-6	1
Cc1c(Cl)cccc1NC(=O)CNc1cccc(S(=O)(=O)N(C)C)c1	0.0%	3.1	-15	0	-25%	21	-4
CN(Cc1ccccc1)C(=O)COC(=O)c1cc(NS(=O)(=O)c2cccs2)ccc1O	-1.2%	11	.	0	11%	-14	5
CCOC(=O)C(Cc1c[nH]c2ccccc12)NC(=O)c1ccccc1Br (stereo not given)	0.6%	-4.6	-1	-12	9%	-3	-6
O=C(CSc1ncc(-c2ccccc2)nn1)NCc1ccco1	2.2%[38.3 µM]	-0.7	-8	-6	4%	-5	6
Cn1c(=O)c2c(ncn2CC(O)CNc2ccc(F)cc2)n(C)c1=O (stereo not given)	-0.2%	-1.9	-29	26	-4%	-2	-1
CCOC(=O)C1CCCN(c2c(NCCc3ccccc3)c(=O)c2=O)C1 (stereo not given)	3.3%	-1.0	4	-1	10%	0	0
Cc1cnc(NC(=O)c2ccc3c(c2)OCCO3)s1	3.7%	4.5	1	2	.	0	-12
Cc1cccc2sc(NNC(=O)C3COc4ccccc4O3)nc12 (stereo not given)	2.4%	7.4	-1	-2	32µM*	5	15
